Bioassay records (PubChem)
HPGD inh: qHTS Assay for Inhibitors of HPGD (15-Hydroxyprostaglandin Dehydrogenase) | Potency, µM, inactives show at the top dose activity change, negative = inhibition, usual class: inhibitors | purified HPGD, NADH fluorescence kinetic, PGE2 substrate | 15-hydroxyprostaglandin dehydrogenase [NAD(+)] (Homo sapiens), P15428 | AID 894, 2007 | 4.3% of 150,000 active; active = well fitted inhibition curve with a large enough effect (not every such curve was filed as active); inconclusive = small, poorly fitted or top-dose-only effect, or another doubt; inactive = no such curve, though single readings can be large or run the other way;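 further: top concentration of the series not given in the record; plate controls included wells without enzyme; inactives centre near -10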
Target sequence (P15428 whole entry, looked up): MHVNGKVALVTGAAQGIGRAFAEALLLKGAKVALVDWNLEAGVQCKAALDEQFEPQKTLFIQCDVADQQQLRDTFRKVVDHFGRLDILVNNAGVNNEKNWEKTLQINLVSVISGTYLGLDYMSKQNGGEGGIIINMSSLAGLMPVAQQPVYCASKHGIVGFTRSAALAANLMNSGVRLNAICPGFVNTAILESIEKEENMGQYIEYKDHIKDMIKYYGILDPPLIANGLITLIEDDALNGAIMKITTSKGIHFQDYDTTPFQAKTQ
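20 nM HPGD preincubated 15 min at room temperature with compound in 50 mM Tris-HCl pH 8, 0.01% Tween 20. Started with 1 mM NAD+ and 30 uM prostaglandin E2; NADH fluorescence (360/450 nm) read 5 times over 30-s intervals, last minus first.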
* marks the source's active call; other numbers are inactive results. On the % scale 0 is the no-effect control and ±100 the full control effect; potency means the concentration at half of the fitted maximal effect. A portion of the library, so the mix of outcomes need not match the whole.

CCc1ccc(NC(=O)CSc2nnc(Cc3cccn3C)n2-c2ccc(F)cc2)cc1 was read as HPGD inh -6.6%.
`CCOC(=O)N1CCN(C(=O)Cn2c(C)cc3ccccc3c2=O)CC1` gave HPGD inh -19.4%.
`CCCSc1nnc(CN2CCOCC2)n1C` gave HPGD inh 4.1%.
`COC(=O)c1ccc(NC(=O)C(=O)N2CCN(C(=S)Nc3cccc(OC)c3)CC2)cc1` gave HPGD inh -7.9%.
COc1ccc(C)cc1S(=O)(=O)N(CC(=O)Nc1cccc([N+](=O)[O-])c1)c1cc(C)cc(C)c1 was read as HPGD inh -5.1%.
COc1ccc(OC)c(S(=O)(=O)n2cnc3cc(C)c(C)cc32)c1 was read as HPGD inh -1.3%.
Screening COc1ccc(NC(=O)C(c2ccc(C)cc2)N(C)C(=O)Cc2cccs2)cc1 (centres undefined) returned HPGD inh -13.7%.
For Cc1nc(C(=O)Nc2ccc(F)cc2)nn1-c1ccc([N+](=O)[O-])cc1 the results were HPGD inh -7.5%.
`Oc1ccccc1OCc1nc2ccccc2s1` gave HPGD inh 12.6µM*.
N#Cc1ccc(Oc2ccc(/C=N/O)cn2)cc1 was read as HPGD inh -21.3%.
`CCOC(=O)/C(=N/Nc1ccccc1)Sc1nnc(CCc2ccccc2)n1-c1ccccc1` gave HPGD inh -22.3%.
`C=CCN1C(=O)/C(=C/c2ccc(OC)cc2)S/C1=N/c1nccs1` gave HPGD inh -8.1%.
Screening CCn1c(Cc2ccccc2)nnc1SCC(=O)N1CCCCC1 returned HPGD inh -13.1%.
`C#CCSc1nnc(-c2ccc(OC)cc2)o1` gave HPGD inh -27.1%.
For O=C(Nc1nc(-c2nc3ccccc3s2)cs1)C1COc2ccccc2O1 (centres undefined) the results were HPGD inh inconclusive.
`O=P(CCN1CCCCC1)(c1ccccc1)c1ccccc1` gave HPGD inh 2.5%.
OC[C@H](S)CS was read as HPGD inh -10.0%.
CCc1nc2ccccc2c(=O)n1NC(=O)c1c(O)c2cccc3c2n(c1=O)CCC3 was read as HPGD inh -13.4%.
`CC1CC(C)CN(S(=O)(=O)c2cccc3cccnc23)C1` (centres undefined) gave HPGD inh -12.4%.
Screening COc1ccccc1S(=O)(=O)Cc1ccc(C(=O)N2CCOCC2)o1 returned HPGD inh -14.7%.
COc1ccc(/C=C2/C(=O)ON=C2c2ccccc2)cc1OC was read as HPGD inh 10µM*.
Screening N#CCCn1cnc2c1NC=NC2Cl (centres undefined) returned HPGD inh -5.4%.
Screening Cc1nn(C)c(C)c1S(=O)(=O)N1CCCC(C(=O)N2CCN(c3ccccc3)CC2)C1 (centres undefined) returned HPGD inh -6.4%.
Screening CCN(CC)CCN1C(=O)c2cccc3cc(N)cc(c23)C1=O returned HPGD inh -12.2%.
Screening O=S(=O)(c1cc(-c2nnc(-c3ccc(Br)cc3)o2)ccc1Br)N1CCCCCC1 returned HPGD inh -22.9%.
`Cn1c(=O)nc2n(Cc3ccccc3)c3ccccc3cc-2c1=O` gave HPGD inh inconclusive.
For CCOc1ccc2oc(-c3ccccc3)c(C(=O)O)c2c1 the results were HPGD inh inconclusive.
For CCc1cccc(C)c1NC(=O)COC(=O)CNS(=O)(=O)/C=C/c1ccccc1 the results were HPGD inh 1.0%.
Screening COc1ccc(-c2cc(C(=O)NCCCn3ccnc3)no2)cc1OC returned HPGD inh -6.7%.
For O=C(Nc1nc(-c2ccc(-c3ccccc3)cc2)cs1)C1CCCO1 (centres undefined) the results were HPGD inh -18.0%.
COc1ccc(C2NC(=S)NC3=C2CCc2ccccc23)cc1OC (centres undefined) was read as HPGD inh -17.9%.
Cc1ccc(NC(=O)N(Cc2ccc3c(c2)OCO3)Cc2cc3cc4c(cc3[nH]c2=O)OCCO4)cc1 was read as HPGD inh inconclusive.
O=C(Nc1ccc2ccccc2c1)[C@H]1C[C@@H]1[C@H](NP(=O)(c1ccccc1)c1ccccc1)c1ccccc1 was read as HPGD inh -14.0%.
For CCOc1ccc(CNC(=O)C2CCC(=O)N2C2CCCC2)cc1OC (centres undefined) the results were HPGD inh -6.3%.
`COc1ccc(Cl)cc1-n1c(C)cc(C(=O)O)c1C` gave HPGD inh 12.6µM*.
Screening Cc1ccc(/C=N/Nc2nc(Cl)c(Cl)cc2Cl)s1 returned HPGD inh inconclusive.

A run of entries of the results above, as a working copy:
CCc1ccc(NC(=O)CSc2nnc(Cc3cccn3C)n2-c2ccc(F)cc2)cc1 was read as HPGD inh -6.6%.
`CCOC(=O)N1CCN(C(=O)Cn2c(C)cc3ccccc3c2=O)CC1` gave HPGD inh -19.4%.
`CCCSc1nnc(CN2CCOCC2)n1C` gave HPGD inh 4.1%.
`COC(=O)c1ccc(NC(=O)C(=O)N2CCN(C(=S)Nc3cccc(OC)c3)CC2)cc1` gave HPGD inh -7.9%.
COc1ccc(C)cc1S(=O)(=O)N(CC(=O)Nc1cccc([N+](=O)[O-])c1)c1cc(C)cc(C)c1 was read as HPGD inh -5.1%.
COc1ccc(OC)c(S(=O)(=O)n2cnc3cc(C)c(C)cc32)c1 was read as HPGD inh -1.3%.
Screening COc1ccc(NC(=O)C(c2ccc(C)cc2)N(C)C(=O)Cc2cccs2)cc1 (centres undefined) returned HPGD inh -13.7%.
For Cc1nc(C(=O)Nc2ccc(F)cc2)nn1-c1ccc([N+](=O)[O-])cc1 the results were HPGD inh -7.5%.
`Oc1ccccc1OCc1nc2ccccc2s1` gave HPGD inh 12.6µM*.
N#Cc1ccc(Oc2ccc(/C=N/O)cn2)cc1 was read as HPGD inh -21.3%.
`CCOC(=O)/C(=N/Nc1ccccc1)Sc1nnc(CCc2ccccc2)n1-c1ccccc1` gave HPGD inh -22.3%.
`C=CCN1C(=O)/C(=C/c2ccc(OC)cc2)S/C1=N/c1nccs1` gave HPGD inh -8.1%.

(cont.)
Screening CC(=O)N1CCC(=NNS(=O)(=O)c2ccc(C)c([N+](=O)[O-])c2)CC1 returned HPGD inh -0.8%.
For CCn1c(SCC(=O)N2CCc3ccccc32)nnc1-c1c[nH]c2ccccc12 the results were HPGD inh -4.8%.
For CCCCNC(=O)c1ccc2nc(-c3ccco3)c(-c3ccco3)nc2c1 the results were HPGD inh 25.1µM*.
`COc1cccc(CNC(=O)Cc2nc3nc(C)cc(C)n3n2)c1` gave HPGD inh -12.0%.
Screening COc1ccc(C(=O)Nc2ccccc2C(=O)N/N=C/c2ccco2)cc1 returned HPGD inh 12.3%.
For C=CCn1c(-c2ccoc2C)n[nH]c1=S the results were HPGD inh -10.3%.
Screening COCCCNC(=O)COc1ccc(-c2nccc(-c3ccccn3)n2)cc1 returned HPGD inh inconclusive.
For NC(=O)C1CCN(C(=O)CN2C(=O)c3ccccc3S2(=O)=O)CC1 the results were HPGD inh 1.7%.
For CS(=O)(=O)N1CCC[C@@]2(CCN(c3ncccn3)C2)C1 the results were HPGD inh -26.0%.
Screening Cc1ccc2cc(C)c3nnc(SCC(=O)Nc4nc5c(s4)CCCC5)n3c2c1C returned HPGD inh -9.2%.
Screening C=C(Nc1ccc(OCC)cc1)Nc1ccc(OCC)cc1 returned HPGD inh 1.1%.
Cc1cc(=O)[nH]c2ccccc12 was read as HPGD inh -19.4%.
Screening O=[N+]([O-])c1ccccc1/C=N/n1c(C2CCCCC2)n[nH]c1=S returned HPGD inh 15.8µM*.
Screening O=C(Nc1ccc(-c2cn3ccsc3n2)cc1)C1CC1 returned HPGD inh -8.4%.
`Cc1nnc(SCC(=O)Nn2cnnc2)s1` gave HPGD inh -0.5%.
Screening O=C(Nc1ccc(Cl)cc1)Nc1ccc(N2CCCC2)c(S(=O)(=O)Nc2ccccc2Cl)c1 returned HPGD inh -7.5%.
`CN(C)CCCC1(O)c2ccccc2C=Cc2ccccc21` gave HPGD inh -19.4%.
For CC(C)(C)NC(=O)c1ccncc1 the results were HPGD inh -1.2%.
Screening CCOc1cc2c3c(c1)C1(C(=O)N3C(C)(C)C=C2C)C(C#N)=C(N)Oc2cc(O)ccc21 (centres undefined) returned HPGD inh -12.9%.
CCC(=O)Nc1nnc(CSCc2ccc(F)cc2)s1 was read as HPGD inh -8.2%.
Screening O=C(NNS(=O)(=O)c1ccccc1)c1cnn(-c2ccccc2)c1-n1cccc1 returned HPGD inh 2.1%.
For O=c1c2cnn(-c3ccccc3)c2ncn1Cc1cccnc1 the results were HPGD inh -10.9%.
For Cc1cccc(Cc2c(C)nc3c(C(=O)N4CCN(Cc5ccc6c(c5)OCO6)CC4)cnn3c2C)c1 the results were HPGD inh inconclusive.
For Cc1cc(C)nc(SCC(=O)O)n1 the results were HPGD inh -12.1%.
CCC(=O)Nc1cc(C(=O)OCc2ccc(C(=O)Oc3ccccc3)cc2)ccc1C was read as HPGD inh -3.0%.
Cc1ccc(C(=O)NCCOC23CC4CC(CC(C4)C2)C3)cc1 was read as HPGD inh -16.9%.
`CCOc1ccccc1C(=O)N[C@H](C(=O)Nc1nc2c(s1)CCCC2)C(C)C` gave HPGD inh -14.6%.
Screening c1ccc(Cn2nnc3c(N4CCOCC4)ncnc32)cc1 returned HPGD inh -24.8%.
`CCOC(=O)C1=NN(c2cccc(C)c2)C2(S1)SC(C(C)=O)=C(C)N2c1ccccc1` (centres undefined) gave HPGD inh -20.9%.
Screening CCOC(=O)c1oc2cccc(O)c2c1CN(Cc1ccccc1)C(C)=O returned HPGD inh -17.4%.
For O=C(CN(C(=O)CSc1nc2ccccc2o1)c1cccc(F)c1)NC1CCCCC1 the results were HPGD inh -4.2%.
CCOC(=O)C1CCCN(CCC(=O)Nc2cccc(F)c2)C1 (centres undefined) was read as HPGD inh -11.4%.
`COc1cc2cc3c(N)c(C(=O)Nc4sc(C)c(C)c4C#N)sc3nc2cc1OC` gave HPGD inh -11.0%.
For CCC1Oc2ccccc2N(Cc2ccccc2C)C1=O (centres undefined) the results were HPGD inh -14.6%.
Cc1ccc(Cn2nnc3c(=O)[nH]c(C4CCN(S(=O)(=O)c5ccc(C)cc5)CC4)nc32)cc1 was read as HPGD inh -23.1%.
Screening O=C(NC(=S)N1CCCc2ccccc21)c1ccc([N+](=O)[O-])cc1 returned HPGD inh -19.9%.
For C/C(=N\NC(=O)c1ccccc1O)c1c(O)cc(C)oc1=O the results were HPGD inh inconclusive.
O=C(NNc1nc2ccc(Cl)cc2s1)c1cc(-c2cccs2)nc2ccccc12 was read as HPGD inh -17.5%.
Screening O=C(NC(Cc1c[nH]c2ccccc12)c1nnc2n1CCCCC2)c1ccccc1 (centres undefined) returned HPGD inh -4.7%.
COC(=O)C1=C(N)OC2=C(C(=O)CC(C)(C)C2)C1c1cccs1 (centres undefined) was read as HPGD inh 22.4µM*.
Cc1cc(C)cc(COn2ccnc2)c1 was read as HPGD inh 2.0%.
For Cc1ccc(-c2nc3ccccc3[nH]2)s1 the results were HPGD inh inconclusive.
O=C(NCc1ccc(C(F)(F)F)cc1)C12CN(Cc3ccccc3)CC1C(c1cccc([N+](=O)[O-])c1)=NO2 (centres undefined) was read as HPGD inh -19.0%.
For Cc1[nH]c(C)c(C(=O)O)c1CNC1CCCCC1C (centres undefined) the results were HPGD inh -2.3%.
Screening O=C1CN=C(Nc2ccccc2)N1Cc1cccs1 returned HPGD inh 0.1%.
For CC(=O)c1ccccc1NC(=O)COC(=O)CCCN1C(=O)c2cccc3cccc(c23)C1=O the results were HPGD inh inconclusive.
`CC1(C)Cc2c(sc3c2c(=N)n(Cc2ccco2)c(=O)n3Cc2ccccc2)CO1` gave HPGD inh -8.1%.
C/C(=C\COc1cc(=O)[nH]c2ccccc12)CCC(O)C(C)(C)O (centres undefined) was read as HPGD inh inconclusive.
COc1cc(CNc2nc3ccccc3n2C)cc(OC)c1OC was read as HPGD inh 1.4%.
`O=C(CSc1nc2ccccc2n1S(=O)(=O)c1ccccc1)N1CCCCC1` gave HPGD inh 1.78µM*.
Screening Cc1cccc(NS(=O)(=O)c2ccc(Oc3ccccc3)cc2)n1 returned HPGD inh inconclusive.
Screening CC(O)/C=C/c1ccc2ccccc2n1 (centres undefined) returned HPGD inh -4.7%.
N#CCCS(=O)(=O)c1ccc(N)cc1 was read as HPGD inh -7.8%.
CN1CCN(C(=O)CN(Cc2ccc(Cl)cc2)S(C)(=O)=O)CC1 was read as HPGD inh -6.3%.
Screening Clc1ccc(OCCOCCN2CCCCC2)c(Br)c1 returned HPGD inh 1.6%.
O=C(NCc1nc2ccccc2[nH]1)[C@H]1C[C@@H]1[C@H](NP(=O)(c1ccccc1)c1ccccc1)c1ccccc1 was read as HPGD inh -9.5%.
For COC(=O)C(C)Oc1ccc(-c2nccc(-c3cccs3)n2)cc1 (centres undefined) the results were HPGD inh -14.0%.
Screening CCC(CC)COC(=O)C(C#N)c1nc2ccccc2nc1N1CCN(CC)CC1 (centres undefined) returned HPGD inh -17.4%.
Cc1nn(-c2ccccc2)c2sc(C(=O)O)cc12 was read as HPGD inh -28.1%.
`CN(c1ccc(C(=O)Nc2nccs2)cc1)S(=O)(=O)c1ccccc1` gave HPGD inh 8.91µM*.
CSc1ccn(CCC(=O)O)c(=O)n1 was read as HPGD inh -0.3%.
CCCS(=O)(=O)Nc1c(OC)ccc2c1c(C(=O)OCC)c(C)n2C was read as HPGD inh -8.0%.
For Cc1ccc(N(CN2C(=O)NC(C)(C)C2=O)CN2C(=O)NC(C)(C)C2=O)cc1 the results were HPGD inh -2.7%.
Screening O=C(NC1CCCCC1)c1ccccc1NC(=O)C1CC(=O)N(c2ccccc2)C1 (centres undefined) returned HPGD inh -4.3%.
For COc1ccc(C(=O)NNC(=O)CN2CCC(n3nnc4cc(C(F)(F)F)ccc43)CC2)cc1 the results were HPGD inh -5.9%.
